# MgrA DNA FP: modulators of Staphylococcus aureus MgrA DNA binding | actives 0.13% (n = 84,000) | AID 602314 | inhibition, %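 (about 10 µg/mL by stock and volumes)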 | fluorescence polarization;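 active = above 50% in either of two replicates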;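 note: 0% = protein plus DNA without compound and 100% = DNA alone without protein; higher means less MgrA bound to DNA so lower polarization; one replicate is shown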
# Sa helicase inh: S. aureus DNA helicase inhibition. AID 485395. purified S. aureus helicase, fluorescence unwinding assay; about half of the hits fall short of the stated cut. actives 0.05% (n = 120,000). inhibition, %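 (tested at about 80 µM)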;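 active = both duplicates at 50% or more, or one of them with a favoured structure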;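 note: 0% = mean of negative control wells and 100% = mean of positive control wells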
# Active calls of the source: *; x = not tested or not shown. These rows are one share of the data, so the mix of outcomes need not match the whole.
# Fields – Sa helicase inh	MgrA DNA FP
- CCOC(=O)N1CCN(C(=O)CCCCn2c(=S)[nH]c3c([nH]c4ccc(OC)cc43)c2=O)CC1
    -11	x
- CC(C)CCn1c(=O)c2cccnc2n(Cc2cccc(F)c2)c1=O
    12	9.5
- COc1ccc(S(=O)Cc2ccc(C(=O)NCCN(C)C)o2)cc1 (configuration not stated)
    28	x
- COc1cc2c(cc1OC)C1=C(C#N)COCN1CC2
    12	-0.8
- O=C(CCCCCN1C(=O)c2ccccc2C1=O)Nc1ccc2c(c1)OCO2
    29	x
- CN(C(=O)Cn1ncc2c(=O)oc3ccccc3c21)c1ccc(F)cc1
    -8	x
- O=S(=O)(c1cccc2cccnc12)N1CCC(n2cccc2)CC1
    -10	x
- CCCCOC(=O)Cn1c2ccccc2c2nc3ccccc3nc21
    17	x
- COC(=O)C1C2C=CC3(CN(C(C)c4ccccc4)C(=O)C13)O2 (configuration not stated)
    2	x
- Cc1cc(S(=O)(=O)N2CCN(Cc3noc(CCC(=O)N(C)C4CCCCC4)n3)CC2)ccc1F
    -35	x
- Cc1cc(C)nc(N2CCOCC2)n1
    -25	1.4
- COC(=O)c1ccc(N)cc1
    2	x
- Cn1c(Cc2cccs2)nnc1SCC(=O)C12CC3CC(CC(C3)C1)C2
    -4	x
- O=C(Oc1ccc2ccccc2c1)c1ccccc1O
    16	x
- CCOC(=O)C1=C(C)N(C)C(c2ccccc2)(C(F)(F)F)NC1=O (configuration not stated)
    -5	0.9

# Single records, as listed above. Values in the order: Sa helicase inh	MgrA DNA FP
# Cn1c(Cc2cccs2)nnc1SCC(=O)C12CC3CC(CC(C3)C1)C2 reads -4	x
# Cc1cc(C)nc(N2CCOCC2)n1 reads -25	1.4
# CCOC(=O)N1CCN(C(=O)CCCCn2c(=S)[nH]c3c([nH]c4ccc(OC)cc43)c2=O)CC1 reads -11	x

# (cont.)
# Fields – Sa helicase inh	MgrA DNA FP
- COc1cccc2c1NC(c1ccccc1Br)C1CC=CC21 (configuration not stated)
    x	1.7
- CNC(=O)COC(=O)c1ccccc1OC
    -4	x
- CCN1C(=O)CSc2ccc(C(=O)NC3CCCCCCC3)cc21
    23	x
- Cc1ccc(-c2noc(CCC(=O)N(C)C)n2)cc1
    -4	0.8
- Cc1sc(-c2cnn(-c3ccccc3)c2N)nc1-c1ccccc1
    37	x
- CCC(=O)Nc1ccccc1-c1nc2ccccc2s1
    -19	x
- CCN1C(=O)/C(=C/c2cccc(OC)c2)SC1=S
    -18	x
- O=[N+]([O-])c1ccc(Oc2ccc(OCc3ccccc3)cc2)nc1
    x	2.8
- Cc1cc(C)nc(SCC(=O)NC2CCCCC2)n1
    14	5.3
- Cc1ccc(-c2noc(COC(=O)c3cccnc3SCC(=O)Nc3ccccc3OC(F)F)n2)cc1
    4	x
- CC(Oc1ccc(C#N)cc1)C(=O)NN1C(C)CCCC1C (configuration not stated)
    3	x
- O=C(CSc1nc(=O)n(CCCN2CCOCC2)c2c1CCCC2)N1CCc2ccccc21
    7	x
- COCc1cc(OC(C)C)nc(-c2cccc(C)c2)n1
    x	-7.2
- O=C(O)C1CSC(c2ccccc2)N1 (configuration not stated)
    -3	1.3
- COc1cc(/C=C2\SC(N3CCN(CCO)CC3)=NC2=O)ccc1OCc1ccccc1
    -12	x
- CC1CCN(C(=O)COC(=O)c2ccc(N(C)C)cc2)CC1
    -16	-1.6
- NC(=O)CSc1nnc2c(n1)[nH]c1ccc(Cl)cc12
    0	3.8
- Cn1ccnc1SCC(=O)c1cccc(C(F)(F)F)c1
    5	-1.2
- NC(=O)C1C2C=CC(C2)C1C(=O)O (configuration not stated)
    x	-0.8
- Cc1ccc(CC(=O)Nc2cc(C)on2)cc1
    16	x
- Cc1cccc(NS(=O)(=O)c2ccc(CCN3C(=O)c4cccnc4C3=O)cc2)c1C
    1	0.9
- COc1ccc(CCNC(=O)c2ccc(-n3cncn3)cc2)cc1
    8	x
- CC(C)NC(=S)NNc1ncc(C(F)(F)F)cc1Cl
    7	x
- FC(F)(F)c1cnc(/N=C/N2CCCCC2)c(Cl)c1
    x	1.9
- N#CCCc1cccc(OCc2ccccc2)c1OCc1ccccc1
    x	-0.1
- O=C(c1cccnc1)N1N=C(c2c(-c3ccccc3)c3cc(Br)ccc3[nH]c2=O)CC1c1ccccc1 (configuration not stated)
    x	-2.8
- Cn1cnc2c(Cl)ncnc21
    2	x
- CCN(CC)c1ccc(CN2CCCC(CO)C2)cc1 (configuration not stated)
    2	-0.4
- CSc1ccccc1NC(=O)c1cc2n(n1)C(C(F)(F)F)C1CCc3ccccc3C1N2 (configuration not stated)
    -1	1.8
- CCn1c(CNC(=O)c2ccc(C)cc2)nnc1SCC(=O)NCc1ccccc1
    1	-1.5
- N#Cc1nc(-c2ccccc2F)oc1NCC1CCCO1 (configuration not stated)
    5	-0.8
- CC(C)NC(=O)CSCc1ccc(Cl)cc1
    -7	-5.0
- COc1cccc(Nc2ccc(Nc3cccc(OC)c3)nn2)c1
    -11	1.1
- c1cc(C2OCCO2)ccc1C1OCCO1
    4	-5.8
- CCSc1nnc(NC(=O)CC2OC(=O)c3ccccc32)s1 (configuration not stated)
    -32	x
- Fc1ccc(-c2nnc3ccc(N4CCN(C(=S)NCc5ccccc5)CC4)nn23)cc1
    4	-2.5
- CCCCn1c(CNC=O)nc2ccccc21
    -14	2.1
- Cc1nnc(C)n1/N=C\c1cccc(OCc2ccccc2)c1
    6	-0.9
- O=C(NCc1cccs1)c1cc(-c2ccccc2)nc2ccccc12
    15	0.3
- O=C1C(Oc2ccccc2)C(c2cccs2)N1Cc1ccc2c(c1)OCO2 (configuration not stated)
    18	x
- CCOc1ccc(S(=O)(=O)N(C)c2ccc(OCC(=O)NCC3CCCO3)cc2)cc1 (configuration not stated)
    26	x
- O=S(=O)(Nc1ccc(C(F)(F)F)cc1)c1cnc[nH]1
    -32	x
- CCOC(=O)c1sc(-c2ccc(F)cc2)cc1N
    -6	x
- Cc1nc2c(=O)oc3ccccc3c2o1
    -25	x
- Cc1cccc(OCCCC(=O)O)c1C
    18	-1.6
- O=C1N/C(=C/c2ccc(N3CCCC3)cc2)C(=O)N1c1ccccc1
    -27	12
- COc1ccc(C(N)=O)cc1OC1CCCC1
    x	0.0
- O=C(NC(=S)N1CCc2ccccc21)C1CCCC1
    14	3.3
- COc1ccccc1C(C)N (configuration not stated)
    10	4.3
- COc1ccccc1-c1nc(-c2cccs2)cc(=O)o1
    -83	x
- O=C(NCCCN1CCOCC1)c1cc(-c2ccc(O)cc2)on1
    8	x
- CCn1c(=O)c2cc(C(=O)NCCc3ccsc3)sc2c2ccccc21
    17	-0.2
- O=C(O)c1cc(C2CC2)[nH]n1
    -1	x
- COc1ccc(C(=O)Nc2ccc3[nH]ccc3c2)cc1
    x	-0.4
- Cc1onc(-c2ccccc2Cl)c1C(=O)SCC(=O)Nc1cc(C(F)(F)F)cc(C(F)(F)F)c1
    x	4.5
- O=[N+]([O-])c1ccc2c(c1)CCN2
    x	-2.4
- N#CCCN(Cc1cccs1)C(=O)c1cccs1
    x	-0.8
- CCCc1oc(C(=O)O)cc1CN1CCOCC1
    11	-8.1
- O=C(N/N=C/c1ccccc1F)c1ccccc1
    x	-1.8
- CN(C)CC[C@H](c1ccc(Cl)cc1)c1ccccn1
    x	-0.4

# Single values from the entries so far.
# Entry for `COc1ccc(C(N)=O)cc1OC1CCCC1` under MgrA DNA FP: 0.0
# Entry for `Cc1onc(-c2ccccc2Cl)c1C(=O)SCC(=O)Nc1cc(C(F)(F)F)cc(C(F)(F)F)c1` under MgrA DNA FP: 4.5
# Entry for `COc1ccc(C(=O)Nc2ccc3[nH]ccc3c2)cc1` under MgrA DNA FP: -0.4

# (continued)
# Fields – Sa helicase inh	MgrA DNA FP
- Cn1ccnc1C(=O)c1cc(SCC(=O)Nc2ccc3c(c2)OCO3)nc2ccccc12
    6	x
- Cc1cc(C(=O)Nc2cccc(Cl)c2)on1
    11	-0.8
- COC(=O)CNC(=O)c1cc([N+](=O)[O-])ccc1Oc1ccc(OC)cc1
    x	2.9
- Cc1cccc(N)c1-c1c(C)cccc1N
    10	0.6
- O=C(NCCc1ccccc1)C1CCCN(c2ncnc3c2sc2cccc(F)c23)C1 (configuration not stated)
    7	-1.4
- O=C(CSc1nc2ccccc2o1)Nc1cccc2ccccc12
    x	-1.7
- CCCn1nc(NC(=O)c2cccc(Cl)c2)c2cc3cc(C)ccc3nc21
    4	1.8
- S=c1oc2ccccc2n1CNc1ccccn1
    17	x
- O=C(C(c1ccccc1)c1ccccc1)N1CCCCC1
    x	0.9
- CCc1cccc(NC(=O)CSc2nnc(Cc3ccccc3)n2N)c1
    -14	x
- COc1ccc(N2C(=O)c3ccccc3NC2c2ccc3c(c2)OCO3)cc1 (configuration not stated)
    9	x
- CCC1Oc2ccc(Cl)cc2N(CC(=O)NCCc2ccccc2)C1=O (configuration not stated)
    9	1.0
- N#C/C=C(\N)c1ccc(Oc2ccc(Cl)c(F)c2)cc1
    x	2.8
- Cc1sc2ncnc(N3CCN(Cc4ccccc4)CC3)c2c1-c1ccc(F)cc1
    15	-1.6
- c1ccc(CC2CCN(CCCNc3nc4ccccc4n4nnnc34)CC2)cc1
    -25	3.0
- Cc1ccsc1/C=C1/C(=O)/C(=C/c2sccc2C)C2CCC1N2C
    -1	x
- O=C(O)CCCOc1cccc(Br)c1
    -2	0.0
- COc1ccccc1Nc1ncc(C(=O)N2CCN(c3ccc(F)cc3)CC2)c2ccccc12
    21	x
- CCOC(=O)C(Cc1ccccc1)C(=O)O (configuration not stated)
    -9	x
- CCOC(=O)Cc1csc(NC(=O)c2ccc(Br)cc2F)n1
    5	x
- CCOC(=O)c1cccc(NC(=O)CS(=O)(=O)Cc2nc(-c3ccc(C)cc3)oc2C)c1
    2	x
- Cc1cc(C)nc(NNc2ccccc2)n1
    -12	x
- Cc1ccc(NC(=O)C2CCCN(S(=O)(=O)c3ccccc3)C2)cc1 (configuration not stated)
    -17	x
- CCOC(=O)CN1C(=O)S/C(=C/c2cc(OC)c(O)cc2Br)C1=O
    -62	0.1
- COc1ccc(C2CC(c3ccc(Br)cc3)=NN2C(=O)CCCC(=O)O)cc1OC (configuration not stated)
    x	3.5
- Cc1ccc(CNC(=O)CCCn2c(=O)c3ccccc3n(CC(=O)N3CC(C)CC(C)C3)c2=O)cc1 (configuration not stated)
    18	x
- CN1CCN(C(=O)/C=C\C(=O)O)CC1
    -10	2.8
- COC(=O)c1cc(S(=O)(=O)Nc2cccc(-c3cnco3)c2)oc1C
    x	-1.6
- Cc1cc(Oc2ccccc2)nc(-c2ccc(Br)cc2)n1
    14	-1.5
- N#CCNC(=O)OCc1ccccc1
    x	-2.2
- Cn1cccc1Cc1nnc(SCC(N)=O)n1CCc1ccccc1
    -9	x
- CC12CCC(C/C1=N\OC(=O)O)C2(C)C (configuration not stated)
    11	-3.4
- CCOC(=O)CSc1nnc(Cc2cc(=O)[nH]c(=O)[nH]2)n1-c1cc(C)ccc1C
    3	x

# Pulled by compound from the entries so far (3):
# Fields – Sa helicase inh	MgrA DNA FP
- Cc1ccsc1/C=C1/C(=O)/C(=C/c2sccc2C)C2CCC1N2C
    -1	x
- COc1ccc(C2CC(c3ccc(Br)cc3)=NN2C(=O)CCCC(=O)O)cc1OC (configuration not stated)
    x	3.5
- CCOC(=O)C(Cc1ccccc1)C(=O)O (configuration not stated)
    -9	x

# Part of the list above, with tabs:
SMILES	Sa helicase inh	MgrA DNA FP
COc1ccc(C2CC(c3ccc(Br)cc3)=NN2C(=O)CCCC(=O)O)cc1OC (configuration not stated)	x	3.5
COC(=O)c1cc(S(=O)(=O)Nc2cccc(-c3cnco3)c2)oc1C	x	-1.6
Cc1cc(C)nc(NNc2ccccc2)n1	-12	x
CCOC(=O)C(Cc1ccccc1)C(=O)O (configuration not stated)	-9	x

# Screening results from PubChem.
